LANA-nucl inh – inhibitors of KSHV LANA-nucleosome binding, primary screen, biochemical, fluorescence polarization, FITC-LANA1-23, chicken nucleosomes. FITC-LANA1-23 / chicken nucleosome fluorescence polarization; hits give low values. z-score (no concentration beside the values). actives 0.3% (n = 51,000). AID 720717, 2013;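 active = both repeat wells score below -2 in polarization z-score versus plate sample wells, excluding overly bright wells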;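 note: 100 nL library stock added to about 30 µL; numbers are from one replicate; some results filed as inactive read as strong as hits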
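Test system: purified chicken nucleosomes with FITC-labelled LANA N-terminal peptide (1-23); Input: 240 nM purified chicken nucleosomes (480 nM peptide binding sites), final; Medium: TEN-BT buffer, pH 7.5; Timing: 10–45 min, room temperature; Technique: fluorescence polarization, 480 nm excitation, 535 nm parallel and perpendicular emission; Replication: duplicates.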
Ab BasE inh – BasE siderophore enzyme inhibitors, primary screen, biochemical, Acinetobacter baumannii ATCC 17978, fluorescence polarization | purified BasE, fluorescence polarization binding displacement | inhibition, % (concentration not given with the values) | actives 0.1% (n = 84,000);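 active = both replicates above 25% with normal brightness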;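 note: 0% = negative plate control signal and 100% = positive plate control signal; stock transfer was 100 nL into about 30 µL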
Numbers without * were called inactive; . = no result given. Not all compounds are listed; rates above refer to the full screens.

Compound | Ab BasE inh | LANA-nucl inh
O=C(Nc1ccccc1)c1cc([N+](=O)[O-])ccc1Cl | 4.8 | -0.66
CC12CS(=O)(=O)CC1SC(=S)N2c1ccccn1 (stereo not given) | -0.1 | .
Cc1cc(NC(=O)C(C)Sc2nc(-c3ccccc3)cc(=O)[nH]2)no1 (stereo not given) | 0.5 | -1.5
O=C(NN1CCOCC1)c1ccco1 | 2.7 | .
c1ccc(-n2nnnc2-c2cnoc2-c2cccs2)cc1 | 1.9 | -0.003
CN(Cc1ccccc1)C(=O)COC(=O)c1ccc(-n2cnnn2)cc1 | 0.6 | .
Cc1cc(OCCN)c(C(C)C)cc1Cl | -8.8 | 0.55
CNC(=O)c1ncoc1-c1ccc(Cl)cc1 | -0.5 | -0.65
Cc1cc(C(=O)COc2ccc(-c3ccc(C#N)cc3)cc2)c(C)n1C | -2.6 | .
Cn1cc(-c2csc(N)n2)cn1 | 0.5 | 2.7
N#CCSc1cccc[n+]1[O-] | . | -0.35
COc1ccc(Cc2nn3c(Cn4cnc5ccccc54)nnc3s2)cc1 | 1.1 | 0.38
Cn1cnnc1S/C=C/C(=O)c1ccc(Cl)cc1 | 2.4 | .
CC(C)NC(=O)C(C)SCc1ccccc1 (stereo not given) | 3.1 | -0.87
CC1(C)CC(N=C=S)CCO1 (stereo not given) | 1.8 | -1.1
O=C1CCCN=C(N(C(=O)c2ccco2)c2ccc(F)cc2F)S1 | 1.8 | .
CS(=O)(=O)c1cccc(S(=O)(=O)NC2CCCCC2)c1 | 0.1 | 1.1
O=C(CCc1nc2cc(C(F)(F)F)ccc2n(Cc2ccccc2)c1=O)NCc1ccco1 | -1.3 | .
O=S(=O)(c1ccccc1)N1CCC2(CC1)OCCN2S(=O)(=O)c1ccccc1 | 2.2 | -0.81
CC(C)CC1NC(=O)C(CCCN)NC(=O)C(C(C)C)NC(=O)C2CCCN2C(=O)C(Cc2ccccc2)NC(=O)C(CC(C)C)NC(=O)C(CCCN)NC(=O)C(C(C)C)NC(=O)C2CCCN2C(=O)C(Cc2ccccc2)NC1=O (stereo not given) | . | -0.49
O=C(Cn1c(=O)n(Cc2ccc3c(c2)OCO3)c(=O)c2ccc(C(=O)NC3CCCCC3)cc21)NCc1ccco1 | 1.9 | -1.2
CCCCCC1OC1C/C=C\C/C=C\C/C=C\CCCC(=O)O (stereo not given) | 2.4 | -1.6
CC1CN(CCCNC(=O)Nc2ccc(Cl)cc2)CC(C)O1 (stereo not given) | . | 0.059
CCN(CC)c1ccc(-c2nnc(SC(C)C)n2C)cc1 | 4.2 | .
Cn1nnc(NC(=S)NC(=O)Cc2ccccc2)n1 | -0.9 | 2.4
O=S(=O)(NCC1CCN(Cc2ccc(Cl)cc2)CC1)c1cnc[nH]1 | -1.5 | .
O=S(=O)(c1cccs1)N(Cc1ccccc1)Cc1ccccc1 | 2.4 | -1.1
COc1cc(C#N)ccc1OCC(=O)Nc1ccc(C)cc1C | 5.6 | -0.19
C=CCNC(=O)N1c2ccccc2Sc2ccccc21 | 2.4 | -0.51
Clc1ccc(CSc2ncccn2)cc1 | 0.2 | .

Laid out differently: 2 of the compounds above
Values run as follows: Ab BasE inh, LANA-nucl inh
c1ccc(-n2nnnc2-c2cnoc2-c2cccs2)cc1
    1.9, -0.003
CC1(C)CC(N=C=S)CCO1 (stereo not given)
    1.8, -1.1

More results
Compound | Ab BasE inh | LANA-nucl inh
Cc1cnc(NC(=O)c2cn(-c3ccccc3)nc2-c2cccnc2)s1 | 2.4 | .
C#CCn1c(=NC(=O)COc2ccccc2)sc2cc(S(N)(=O)=O)ccc21 | 0.3 | 0.28
CS(=O)(=O)c1ccc2nnn(OCC(=O)Nc3cccc(C#N)c3)c2c1 | -0.8 | .
COC(=O)Cn1c(C(=O)OC)cc2c1ccn2C | -1.9 | 3
CC1CCCC/C1=N/NC(=O)Cn1ccc(C(F)(F)F)n1 (stereo not given) | -0.1 | .
CC(C)CNC(=O)c1cc2ccccc2oc1=O | -4.2 | .
O=C(Cn1c(=O)c2ccccc2n2nncc12)Nc1ccccc1C(F)(F)F | 0.0 | 0.51
O=C(CC1NC2CCCCC2NC1=O)NCc1ccccc1 (stereo not given) | 0.2 | 0.2
O=C(/C=C/c1ccccc1)OCC(=O)N1CCCC1 | 0.2 | .
N#Cc1c(N)n(CCC2=CCCCC2)c2nc3ccccc3nc12 | 1.1 | .
CCCN1C(=O)C(C#N)=C(C)/C(=C\c2ccc(-c3ccc(Cl)cc3)o2)C1=O | 3.2 | .
COC(=O)C1=NNC2(c3ccc(C)cc3)C(=O)N(c3ccc(C)cc3)C(=O)C12 (stereo not given) | -2.4 | 1.5
COc1ccc(C(=O)N=S2CCN(C(=O)c3ccc(Cl)cc3)CC2)cc1 | -0.1 | 0.13
Cc1ccc2nc(N3CCc4ccccc43)c3nncn3c2c1 | -0.1 | -0.38
COc1ccccc1NC(=O)Cc1noc(COC(=O)c2ccc(C(F)(F)F)cc2)n1 | -4.4 | .
CN(C)S(=O)(=O)c1ccc(S(=O)(=O)N2CCC(c3nc4ccccc4s3)CC2)cc1 | -2.5 | 2.6
CCc1cccc(NS(=O)(=O)c2c(C)n[nH]c2C)c1 | 4.4 | 0.07
CC(=O)Nc1c(C)cc(C(O)(C(F)(F)F)C(F)(F)F)cc1C | 2.1 | -1.2
CC1(C)CC2CC(C)(CN2C(=O)COC(=O)C2=NNC(=O)CC2)C1 (stereo not given) | 1.0 | .
C=CCNC(=O)C1CCN(S(=O)(=O)c2ccccc2C(F)(F)F)CC1 | 6.2 | .
CCCCN(C)S(=O)(=O)c1cc2c3c(c1)CCC(=O)N3CCC2 | 2.7 | -0.51
CC1CCCN(CC(=O)O)C1 (stereo not given) | 1.6 | 0.21
N#CC(Cc1ccccc1)Sc1nnc(-c2cccs2)n1Cc1ccccc1 (stereo not given) | 2.7 | .
Nc1nncn1C(=O)CCCN1C(=O)c2ccccc2C1=O | 3.4 | -0.66
COc1ccc(-n2ncc3c(=O)n(CC(=O)NC(C)C)cnc32)cc1 | -2.3 | -0.2
CCNc1nc(-c2ccc(OC)cc2OC)cs1 | 0.8 | .
COc1ccc(S(=O)(=O)N(C(=O)C(C)C)c2ccc3oc(=O)sc3c2)cc1 | -3.1 | 1.3
Cc1nc(N=C(N)N)nc2cc3c(cc12)OCO3 | 1.9 | 0.46
COc1ccccc1C1(C#N)CCOCC1 | -2.6 | 0.82
COc1ccc(N2CCN(S(=O)(=O)c3cc(Br)cc4c3N(C(C)=O)C(C)C4)CC2)cc1 (stereo not given) | 0.8 | -0.43

Laid out differently: 6 of the compounds above.
Values in the order – Ab BasE inh, LANA-nucl inh
Cc1ccc2nc(N3CCc4ccccc43)c3nncn3c2c1
  -0.1, -0.38
COc1ccccc1NC(=O)Cc1noc(COC(=O)c2ccc(C(F)(F)F)cc2)n1
  -4.4, .
CN(C)S(=O)(=O)c1ccc(S(=O)(=O)N2CCC(c3nc4ccccc4s3)CC2)cc1
  -2.5, 2.6
CCc1cccc(NS(=O)(=O)c2c(C)n[nH]c2C)c1
  4.4, 0.07
CC(=O)Nc1c(C)cc(C(O)(C(F)(F)F)C(F)(F)F)cc1C
  2.1, -1.2
CC1(C)CC2CC(C)(CN2C(=O)COC(=O)C2=NNC(=O)CC2)C1 (stereo not given)
  1.0, .

Following part:
Compound | Ab BasE inh | LANA-nucl inh
CCNC(=O)C1CCCN1C(=O)OCC(C)C (stereo not given) | 1.2 | -0.054
OC(CN1c2ccccc2Sc2ccccc21)Cn1nnc2ccccc21 (stereo not given) | -0.5 | 0.18
CC(=O)N1CCN(S(=O)(=O)c2cccc(C(=O)OCc3csc(-c4ccccc4)n3)c2)CC1 | 0.9 | .
Cc1ccc(S(=O)(=O)/N=C(/c2ccccc2)N2CCOCC2)cc1 | -2.1 | .
CCOC(=O)c1[nH]c(C)c(Cc2ccc(OCC)cc2)c1C | 0.8 | 0.042
Cc1cc(NC(=O)CCN2C(=O)C3C4C=CC(C4)C3C2=O)c(C)cc1Br (stereo not given) | 4.0 | -0.31
CC1Cc2cc(C(=O)CSc3nnc(-c4ccco4)n3-c3ccccc3)ccc2N1S(C)(=O)=O (stereo not given) | -0.4 | .
CCOc1cc(C=C2C(=O)NC(=S)NC2=O)ccc1OCCOc1ccc(C(C)CC)cc1 (stereo not given) | 2.9 | .
CN(C)C=Nc1ccc(OCc2ccccc2)cc1 | -4.7 | .
Cn1cnnc1Sc1ccc(Cl)cc1NC(=O)C1CCCCC1 | 1.9 | .
Cc1ccc(CNC(=O)C2c3ccccc3Oc3ccccc32)cc1 | -0.6 | .
CCCCSc1nc(O)c(CCC(C)C)c(=O)[nH]1 | -1.3 | 1.1
Cc1ccc(-c2noc(CNC(=O)CSc3ccccc3)n2)cc1 | -0.6 | -0.22
O=C1NC2(CCCC2)C(=O)N1Cc1cc(=O)n2ccsc2n1 | 3.8 | .
O=[n+]1c2c(n([O-])c3cc(Br)ccc31)CCCC2 | 0.3 | 2.8
Cc1cc(C)c(C#N)c(SCCC#N)n1 | 0.5 | .
CCN1CCN(C(c2ccc(OC)cc2)C(O)C(=O)c2c[nH]c3ccccc23)CC1 (stereo not given) | 1.2 | .
C=CCn1nnnc1SCC(=O)Nc1ccc(OC)cc1 | 2.2 | -1.1
CC(C)(Oc1ccc(Cl)cc1)C(=O)NN | 2.5 | -0.68
O=C(O)CSCc1cccs1 | 2.6 | .
O=C(Nc1nnc(C(F)(F)F)s1)C(Cc1ccccc1)N1C(=O)C2C3C=CC(C3)C2C1=O (stereo not given) | 2.0 | -0.77
CCn1c(Sc2nc(C)nc3scc(-c4cccs4)c23)n[nH]c1=O | 3.4 | .
CCCCCCCCCCCCC/C=C/[C@@H](O)[C@H](CO)NC(=O)CCCCCCC | -0.6 | -0.35
c1ccc(Cn2c3c(c4ccccc42)CCc2nonc2-3)cc1 | 0.9 | .
COc1cc(C(=O)NN2CCN(C)CC2)cc(OC)c1OC | 2.3 | .
CC1CCN(C(=O)c2ccccc2NC(=O)C(C)(C)C)CC1 | 1.6 | -0.14
CCOC(=O)c1cnn(C(=O)COc2ccc(C)c3c2CCC3)c1N | 0.6 | .
O=C1NC(c2ccccc2)(C(F)(F)F)N=C2SC3=C(CCCC3)N12 (stereo not given) | 0.2 | .
O=C(CC1SC(N2CCCCC2)=NC1=O)Nc1cccc(Cl)c1Cl (stereo not given) | -2.7 | .
C=Cn1cc[n+](CC(=O)c2ccc(Cl)cc2)c1 | -4.8 | 0.21
O=C(NC1CCCCC1)c1ccc(-n2ccc3ccccc32)s1 | 2.3 | 0.31
COc1cc(C2CC(=O)NC(SCC(=O)Nc3ccc(C)c(C)c3)=C2C#N)cc(OC)c1OC (stereo not given) | 0.2 | -0.31
O=C(CSc1nnc2c(n1)Nc1ccccc1S2)N1CCN(Cc2ccccc2)CC1 | 1.8 | .
COc1ccc(CN(C)C(=O)CN2CCCCC2C)c(OC)c1OC (stereo not given) | -0.2 | .
Cn1nc(C(=O)N(Cc2ccco2)C2CCCCC2)c2c1-c1ccccc1OC2 | -0.7 | -0.9
CNC(=O)CN(Cc1ccccc1)S(=O)(=O)c1ccccc1 | 0.0 | -0.72
CC(Oc1ccc(Br)cc1)C(=O)N=c1sccn1C (stereo not given) | -0.6 | .
COc1ccc(/C=C/C(=O)Nc2c(C(N)=O)oc3ccccc23)cc1OC | 1.2 | -1.5
Cc1c(O)ccc(C(=O)Cc2ccc(F)cc2)c1O | 1.9 | -0.14
COc1ccc(NC2CCCCC2NS(=O)(=O)c2ccccc2)cc1 (stereo not given) | 2.1 | -1.1
COC(=O)c1ccsc1NC(=O)CC1SC(N)=NC1=O (stereo not given) | 3.1 | -0.6
O=c1cccccc1NC1CCCCC1 | 2.1 | 0.86
COc1nc(Nc2ccc(Cl)cc2)nc(NC2CCCCC2)n1 | -0.9 | -0.54
CN1CCN(c2nc(-c3ccccc3)cc(-c3ccc(Br)cc3)n2)CC1 | 1.7 | -0.45
CC1(C)Cc2ccccc2C(=NCCC(=O)O)N1 | -0.8 | -0.55
CCCCSc1nc2c(c(C(F)(F)F)c1C#N)CCC2 | 1.5 | 0.26
CC12COC3(C#N)CC1CCC32C (stereo not given) | 4.0 | 0.25
Cc1cccc(-c2nnc3sc(NC(=O)COc4ccccc4F)nn23)c1 | 3.9 | -0.16
Cc1nccc(-c2cccc(NS(=O)(=O)c3ccccc3C(F)(F)F)c2)n1 | -1.3 | .
CC1C(=O)OC2C1CCC1(C)CCC(=O)C(C)C21 (stereo not given) | -0.1 | -0.038
O=C(c1ccccc1)C(Sc1ncn[nH]1)c1ccccc1 (stereo not given) | 3.0 | .
O=C(CSc1nnc2n1CCCCC2)N(Cc1cccs1)c1ccc2c(c1)OCCO2 | 0.3 | .
CCOCCCn1c(SCC(=O)/C(C#N)=C(\C)N)nc2ccccc2c1=O | 0.3 | .
FC(F)(F)c1nnc2n1N=C(c1cc3ccccc3o1)CS2 | 2.4 | .
Cc1ccc2oc(C(=O)Nc3ccc(S(N)(=O)=O)cc3)cc(=O)c2c1 | 1.1 | -0.37
CCN(CC(=O)Nc1ccccc1OC)C(C)C(=O)c1[nH]c(C)c(C(=O)OC)c1C (stereo not given) | 0.6 | .
O=S1(=O)C=C2C(C1)SC(=S)N2C1CCS(=O)(=O)C1 (stereo not given) | 1.9 | .
Cc1ccc(C(=O)Nc2cc(C)cc(C)c2)cc1 | -1.2 | -0.2

2 entries from above, reformatted:
Under each structure: Ab BasE inh	LANA-nucl inh
O=S1(=O)C=C2C(C1)SC(=S)N2C1CCS(=O)(=O)C1 (stereo not given)
  1.9	.
CC(Oc1ccc(Br)cc1)C(=O)N=c1sccn1C (stereo not given)
  -0.6	.

Source: PubChem
